# 2A StopGo: FMDV 2A StopGo reporter, luciferase signal. 410,000 compounds, 1.2% hits. AID 1159524. human cells with a luciferase reporter of 2A StopGo recoding; control for the full effect not named in the record. Potency, µM (series often up to 57.9 µM), inactives show top-dose signal change, negative = less light; active = well fitted falling curve with a large enough effect; inconclusive = small, poorly fitted or top-dose-only effect; inactive = no such curve, though single readings can be large or run the other way; tested in HEK293T cells; also: % is scaled to controls: 0 for no effect and ±100 for the full control effect; nearly all actives have a fitted effect of over 45% in size; luciferase light after 4 h
# RE007 growth inh: less growth of the S. pombe RE007 Vpr strain | 360,000 compounds, 0.21% hits | Potency, µM (titrated, usually from 92.2 µM), inactives show at the highest dose activity change, negative = less growth | S. pombe RE007 Vpr strain, BacTiter-Glo ATP luminescence, 24 h; control for the full effect not named in the record | AID 651644; active = well fitted falling curve with a large enough effect; inconclusive = small, poorly fitted or top-dose-only effect; inactive = no such curve, though single readings can be large or run the other way;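 also: % is scaled to controls: 0 for no effect and ±100 for the full control effect; nearly all actives have a fitted effect of over 50% in size; the assay follows cell death caused by Vpr and the record does not say whether a fall means rescue or toxicity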
#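 Fission yeast strain RE007, carrying one chromosomally integrated HIV-1 vpr copy, was seeded at OD 0.01 in PMG+AL medium with 23 nL pinned compound. After 24 h at 30 °C and 99% humidity, viability was read by BacTiter-Glo luminescence.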
# SARS PLP yeast: SARS-CoV PLP inhibition in yeast; S. cerevisiae expressing SARS-CoV PLpro, growth rescue; control for the full effect not named in the record; Potency, µM (titrated, usually from 32.9 µM), for the others: at the top dose activity, positive = growth rescue; 330,000 compounds, 0.19% hits; AID 485353; active means well fitted rising curve with a large enough effect; inconclusive means small, poorly fitted or top-dose-only effect; inactive means no such curve, though single readings can be large or run the other way; also: 0% is about no effect; nearly all actives have a fitted effect of over 55% in size; growth read by luminescence after 48 h
# Cruzain inh noDet: cruzain (T. cruzi) inhibition without detergent; purified cruzain, Z-FR-AMC fluorescence, no detergent; Potency, µM, without a hit: max response, negative = inhibition, most hits filed as inhibitors; 200,000 compounds, 2.3% hits; AID 1476; P25779;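 also: plate controls were enzyme without inhibitor for no effect and buffer without enzyme for full effect; nearly all actives have a fitted effect of over 40% in size; top concentration of the series not given in the record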
# Target sequence (P25779 123-467 limits assumed): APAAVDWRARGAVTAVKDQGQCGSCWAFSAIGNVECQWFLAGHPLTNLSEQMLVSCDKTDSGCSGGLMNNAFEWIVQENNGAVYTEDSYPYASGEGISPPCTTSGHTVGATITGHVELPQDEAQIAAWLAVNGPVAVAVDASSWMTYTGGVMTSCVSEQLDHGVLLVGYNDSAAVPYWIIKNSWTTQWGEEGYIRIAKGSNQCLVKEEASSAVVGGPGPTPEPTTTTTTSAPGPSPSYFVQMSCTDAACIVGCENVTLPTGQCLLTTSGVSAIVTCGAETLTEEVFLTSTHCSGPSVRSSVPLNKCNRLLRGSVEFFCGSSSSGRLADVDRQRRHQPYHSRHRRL
#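 Purified cruzain at 1.5 nM, pre-incubated 15 min with compound at room temperature in 100 mM sodium acetate pH 5.5, 5 mM DTT, 0.00005% Triton X-100. Reaction started with 2 uM Z-FR-AMC; AMC fluorescence increase over 60 s gives rate.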
# NS1 function inh: inhibitors of influenza NS1 protein function; 270,000 compounds, 0.4% hits; Potency, µM (highest dose often 46.1 µM), for inactives: at the top dose activity, positive = more growth; S. cerevisiae slowed by influenza A NS1, growth recovery by OD600; active means well fitted rising curve with a large enough effect; inconclusive means small, poorly fitted or top-dose-only effect; inactive means no such curve, though single readings can be large or run the other way; also: nearly all actives have a fitted effect of over 50% in size
#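 OD600 was taken as the measure of yeast growth restored by compound in an NS1-expressing S. cerevisiae strain. Cells had been washed out of glucose medium and diluted 1:100 into galactose -URA medium, pH 6.0.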
# MARV entry inh: blocks Marburg virus binding to or entry into cells. Marburg virus pseudotyped entry inhibition, cell reporter; control for the full effect not named in the record; about a third of the inactives were read at about 46 µM. Potency, µM (titrated, usually from 37.8 µM), for inactives: at the highest dose activity change, negative = inhibition, actives largely listed as inhibitors. 300,000 compounds, 1.8% hits. AID 540276; active = well fitted inhibition curve with a large enough effect; inconclusive = small, poorly fitted or top-dose-only effect, or effect the other way; inactive = flat fitted curve, though single readings scatter; tested in HEK293 cells; about a fifth of its hits are not listed in these tables; also: % is scaled to controls: 0 for no effect and ±100 for the full control effect; luciferase read-out
# Cruzain Triton: cruzain (T. cruzi) inhibition with detergent; P25779; purified cruzain, Z-FR-AMC fluorescence, 0.01% Triton; Potency, µM, for the others: max response, negative = inhibition, hits mostly inhibitors; 200,000 compounds, 0.43% hits;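 also: plate controls were neutral wells for no effect and buffer without enzyme for full effect; nearly all actives have a fitted effect of over 40% in size; top concentration of the series not given in the record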
#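 15 min RT preincubation of 1.5 nM cruzain with compound, then 2 uM Z-FR-AMC added; kinetic AMC fluorescence, 60 s delta. Triton X-100 0.01%, pH 5.5.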
# LASV entry inh: Lassa virus entry inhibition; Potency, µM (highest dose often 37.9 µM), for the others: at the highest dose activity change, negative = inhibition, actives largely listed as inhibitors; AID 540256; Lassa virus pseudotype entry inhibition, cell reporter; control for the full effect not named in the record; 300,000 compounds, 1.2% hits; active means well fitted inhibition curve with a large enough effect; inconclusive means small, poorly fitted or top-dose-only effect, or effect the other way; inactive means flat fitted curve, though single readings scatter; tested in HEK293 cells; also: % is scaled to controls: 0 for no effect and ±100 for the full control effect; nearly all actives have a fitted effect of over 50% in size; luciferase read-out
# The depositor's hits bear a star; ? = inconclusive; nt = not tested or not shown; & = joins results of further samples; [ ] = another dose, or the depositor's remark. Unless noted, calls follow the shape of the dose curve; as a rule, active = well fitted curve in the direction sought with a large enough effect; inconclusive = small, poorly fitted or top-dose-only effect, or another doubt; inactive = no such curve, though single readings can be large; an effect the other way counts as inactive or inconclusive. Potency is read from the fitted curve at half-maximal effect.
SMILES,2A StopGo,RE007 growth inh,SARS PLP yeast,Cruzain inh noDet,NS1 function inh,MARV entry inh,Cruzain Triton,LASV entry inh
Cn1c(N)c(C#N)c(C#N)c1-c1ccccc1,0%,-10%,4%,-1%,-8%,-12%&-12%[46.1 µM],1.2%,-1%
Cc1c(N2C(=O)C(C)SC23C(=O)Nc2ccccc23)c(=O)n(-c2ccccc2)n1C (stereo not drawn),5%,12%,?,4%,1%,14%,1.6%,-6%
COc1ccc(-c2csc3ncnc(N4CCN(S(=O)(=O)c5ccc(C)cc5)CC4)c23)cc1,-23%,7%,1%,nt,nt,?,nt,-18%
Cc1cccc(N2CCN(C(=O)CN3C(=O)NC4(CCCCCC4)C3=O)CC2)c1C,-19%,-2%,-5%,nt,nt,-14%[46.1 µM],nt,-11%
COCCCNC(=O)C1CCC(Cn2c(=O)c3sccc3n(C)c2=O)CC1 (stereo not drawn),-8%,nt,nt,15%,nt,nt,0.4%,-3%[46.1 µM]
COc1cc(C(=O)N=c2sc3c(C)ccc(OC)c3n2C)cc(OC)c1OC,-11%,-4%,-4%,nt,2%,nt,nt,nt
CC[C@H](C)[C@H](NC(N)=O)C(=O)NNC(=O)c1ccc(COc2cccc3cccnc23)cc1,10%,-8%,21%,nt,-7%,2%[46.1 µM],nt,-16%[46.1 µM]
CCc1ccc(NC(=O)CSC2=Nc3ccccc3C3=NC(CC(=O)NCc4ccccc4)C(=O)N23)cc1 (stereo not drawn),-10%,nt,nt,27%,nt,nt,-5.1%,0%[46.1 µM]
CN(C)Cc1cc(C(F)(F)F)ccc1C(O)(c1ccccc1)c1ccccc1,-24%,2%,nt,1%,-3%,?,-1.0%,?
Cc1ccc(OCc2cc(=O)n3cc(C)sc3n2)c(C)c1,21%,nt,nt,12%,nt,-4%[46.1 µM],-0.6%,16%[46.1 µM]
CCOC(=O)COc1ccccc1/C=N\NC(=O)c1cc2c(ccc3ccccc32)o1,-22%,23%,-6%,nt,-19%,-12%,nt,12%
CCC1([N+](=O)[O-])COC(c2ccc(C)cc2)OC1 (stereo not drawn),11%,-3%,nt,nt,nt,?,nt,?
CCOC(=O)C1CCN(C(=O)CSc2n[nH]c(-c3ccc(F)cc3)n2)CC1,-21%,nt,nt,-2%,nt,nt,3.3%,12%[46.1 µM]
COc1cccc2cc(C(=O)N(Cc3ccccc3)CC3CCCO3)c(=O)oc12 (stereo not drawn),77%[activator],-13%,-2%,-8%,-7%,14%,-7.2%,-8%
Cc1nnc(NC(=O)c2ccco2)s1,21%,8%,-24%,4%,-6%,2%,-1.3%,2%
Cc1ccc(C)n1-c1ncc(Br)cn1,53%[activator],-23%,1%,nt,2%,14%[46.1 µM],nt,3%[46.1 µM]
COc1ccc(-n2c(CN3CCN(c4ccc(F)cc4)CC3)nc3ccc([N+](=O)[O-])cc3c2=O)c(OC)c1,-8%,9%,-2%,nt,8%,-21%[46.1 µM],nt,?
CCCCCCCCCC(=O)OCC(O)CO (stereo not drawn),-18%,-12%,-16%,3%,-57%,10%&10%,-2.2%,11%
CCNC(=O)c1ccc2c(c1)sc1nc(-c3cccc(OC)c3)cn12,3%,nt,nt,-2%,nt,nt,-3.5%,4%[46.1 µM]
CCCC(C)C(=O)Nc1ccc(NC(C)=O)cc1 (stereo not drawn),-16%,7%,8%,3%,0%,1%,4.8%,7%
O=C(N/N=C/c1ccc[nH]1)c1c[nH]c2ccccc12,8%,-1%,1%,nt,16%,nt,nt,nt
Cc1ccccc1NC(=O)CCCSc1nc2ccccc2s1,0%,?,-41%,-10%,-46%,2%,-8.7%,-17%
Cc1nc([N+](=O)[O-])cn1CC(O)c1ccc(-c2ccccc2)cc1 (stereo not drawn),-13%,2%,-1%,nt,-5%,nt,nt,nt
CCn1c(N)c(C(=O)NC2CCCCC2)sc1=S,0%,4%,-11%,-6%,-15%,-16%,-8.0%,1%
Clc1ccccc1C1CC(c2ccccc2)=Nc2ccccc2N1 (stereo not drawn),-14%,-8%,-2%,nt,9%,?,nt,-2%

# Following part:
SMILES,2A StopGo,RE007 growth inh,SARS PLP yeast,Cruzain inh noDet,NS1 function inh,MARV entry inh,Cruzain Triton,LASV entry inh
COc1cccc(NC(=O)CCc2c(C)nn(-c3ccc(N4CCOCC4)nn3)c2C)c1,5%,-1%,-15%,nt,-6%,4%[46.1 µM],nt,1%[46.1 µM]
O=C(CSc1n[nH]c(=O)[nH]c1=O)NCC1CCCCC1,-15%,0%,1%,nt,-2%,nt,nt,nt
CCCNC(=S)N1CCC(NC(=O)C2CCCCC2)CC1,-19%,-1%,3%,5%,1%,-5%,5.1%,13%
Oc1ccccc1/C=N/Nc1nccnc1Cl,38%[activator],?,-33%,-5%,-186%,?,-2.0%,13µM*
O=c1[nH]nc(SCc2nnc(-c3cccc(Cl)c3)o2)n1C1CCCCC1,-23%,-11%,-1%,nt,-13%,?,nt,-6%
CC(=O)c1ccc(NC(=O)c2noc3c2CCc2ccccc2-3)cc1,31%[activator],nt,nt,-4%,nt,?,-3.5%,-3%[46.1 µM]
COc1ccc(C(=O)C[n+]2ccccc2C)cc1,5%,-15%,2%,6%,2%,?,-0.1%,13%
CC(C)NCC1CCc2cc(CO)c([N+](=O)[O-])cc2N1 (stereo not drawn),-14%,-6%[18.4 µM],0%,nt,4%,nt,nt,nt
CCOc1ccccc1C(=O)Nc1cc2c(cc1N1CCCCC1)n(C)c(=O)n2C,-12%,nt,nt,0%,nt,-30%[46.1 µM],-7.7%,?
CC(C)c1ccc(NC(=O)COc2ccccn2)cc1,48%[activator],5%,0%,nt,nt,?,nt,-5%[46.1 µM]
COc1cc(Cl)c(C)cc1NC(=O)CCCN1C(=O)CCC1=O,-8%,?,3%,9%,0%,4%,3.6%,18%
COC(=O)Cc1ccc(NC(=S)N2CCN(c3ccc(OC)cc3)CC2)cc1,-16%,nt,12%,20%,-9%,-3%,-0.5%,-19%
C=CCSc1nnc(CNC(=O)c2ccc(Cl)cc2)n1CC,-6%,-2%,1%,nt,2%,7%[46.1 µM],nt,10%[46.1 µM]
O=C(NCc1ccc(Cl)cc1)c1ccc(CSc2nc3ccncc3[nH]2)cc1,-32%,-9%,1%,nt,6%,-17%[46.1 µM],nt,?
O=C(Nc1cccc(Cl)c1)N1CCN(Cc2ccccc2)CC1,34%[activator],14%,0%,-5%,-8%,-1%,0.2%,nt
COc1cc(CN2CCNC(=O)C2CC(=O)N2CCCCO2)cc(OC)c1 (stereo not drawn),-1%,5%,0%,nt,7%,1%[46.1 µM],nt,-1%[46.1 µM]
Cc1ccccc1C(=O)N1CCN(c2ccc([N+](=O)[O-])c(NCc3ccco3)c2)CC1,-13%,0%,-9%,-29%,11%,?,-3.6%,-10%
CCOCCCNC(=O)c1c(NC(=O)Cc2coc3ccc(C)cc23)sc2c1CCC2,-6%,nt,nt,0%,nt,?,-1.1%,23%[46.1 µM]
CCOC(=O)CCCNc1ccc([N+](=O)[O-])cc1[N+](=O)[O-],-4%,3%,16%,?,-6%,-6%,-7.0%,0%
CCn1cc(-c2ccnc3cc(C(=O)O)nn23)c(C)n1,0%,3%,4%,nt,nt,20%,nt,5%[46.1 µM]
c1cncc(-c2nc3cc(Cc4ccc5oc(-c6cccnc6)nc5c4)ccc3o2)c1,nt,nt,6%,-2%,-4%,-4%,1.8%,nt
CCC1Oc2ccccc2N(CC(=O)NCCc2ccc(OC)c(OC)c2)C1=O (stereo not drawn),-11%&-25%,-9%,0%,3%&13%,-1%,0%,0.6%&-1.8%,4%[46.1 µM]
COc1cccc(-c2nc(-c3ccc(NC(=O)c4ccncc4)cc3)no2)c1,-16%,14%[3.69 µM],2%,9%,-12%,?,1.0%,-15%
Cc1ccccc1NC(=S)Nn1cnnc1,-9%,5%,-8%,nt,-2%,nt,nt,nt
CC1CN(C(=O)COc2ncnc3ccccc23)CC(C)O1 (stereo not drawn),16%,-3%,4%,7%,-3%,12%,-2.2%,14%

# The results go on:
SMILES,2A StopGo,RE007 growth inh,SARS PLP yeast,Cruzain inh noDet,NS1 function inh,MARV entry inh,Cruzain Triton,LASV entry inh
COC(=O)c1ccc(NC(=O)c2ccc3c(c2)C(=O)N(Cc2cccnc2)C3=O)cc1,?,-15%,4%,nt,8%,1%[46.1 µM],nt,18%[46.1 µM]
Cc1ccc(C(=O)c2coc3ccc(O)c(Cl)c23)cc1,-14%,?,-9%[6.58 µM],-7%,-87%,-1%,-9.5%,?
O=C(NNC(=O)C1C2CCC(C2)C1C(=O)O)c1cccc(Cl)c1 (stereo not drawn),6%,2%,-1%,nt,-1%,2%,nt,0%
COc1cc(C(=O)NCCC(=O)NC2CCC(C)CC2)cc(OC)c1OC (stereo not drawn),-7%,2%,16%,nt,6%,nt,nt,nt
Cc1c(C=O)n(C)n(-c2ccccc2)c1=O,-10%,-7%,1%,nt,2%,3%[46.1 µM],nt,0%
COc1ccc(C(CNC(=O)c2oc3ccc(C)cc3c2C)N2CCOCC2)cc1 (stereo not drawn),-24%,nt,nt,1%,nt,-7%[46.1 µM],-2.2%,?
Cc1ccc(C(=O)Nc2c(C)n(C)n(-c3ccccc3)c2=O)cc1S(=O)(=O)N1CCCCC1,-23%,14%,-5%,nt,nt,-21%,nt,-8%
O=C(Nc1scc(-c2ccccc2)c1C(=O)O)c1ccccc1Cl,21%,-1%,-2%,nt,-36%,2%[46.1 µM],nt,11%
Cc1onc(-c2ccccc2Cl)c1C(=O)N1CCC(Cc2ccccc2)CC1,?,9%,-7%,nt,-72%,?,nt,?
CC(C)CCN1CCN(Cc2ccc(C#CC(C)(C)O)s2)CC1CCO (stereo not drawn),-13%,3%,-1%,nt,-3%,3%,nt,1%
COc1cc(OC)cc(C(=O)NCc2cccnc2)c1,-7%,-15%,5%,-2%,1%,24%,-2.7%,0%
Cc1ccc(S(=O)(=O)NCc2ccncc2)cc1,2%,5%,1%,-20%,5%,?,1.1%,10%
N#C/C(=C(\O)Cc1ccccc1)c1nc2ccccc2[nH]1,11%,18%,-12%,?,6%,-10%,-1.7%,-2%
